KCNQ2 pot: potentiators of rat KCNQ2 potassium channel; B-score at 10 µM; Potassium voltage-gated channel subfamily KQT member 2 (Rattus norvegicus), O88943; 310,000 tested, 0.54% active; AID 2239, 2010; CHO-K1 KCNQ2, FluxOR thallium flux fluorescence; stronger effect = higher value;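 active means fluorescence ratio B-score at least 3 SD of library B-scores, with initial fluorescence B-score within 3 SD, cut at about 5.3 in these data; same plate scores as AID 2156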;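 further: B-score of peak minus minimum over baseline fluorescence ratio after K+ and Tl+ stimulus; positive B-score means potentiation of KCNQ2 with more thallium influx and brighter signal; only the inactives scoring about 0 or higher are listed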
Target sequence (O88943 whole entry, looked up): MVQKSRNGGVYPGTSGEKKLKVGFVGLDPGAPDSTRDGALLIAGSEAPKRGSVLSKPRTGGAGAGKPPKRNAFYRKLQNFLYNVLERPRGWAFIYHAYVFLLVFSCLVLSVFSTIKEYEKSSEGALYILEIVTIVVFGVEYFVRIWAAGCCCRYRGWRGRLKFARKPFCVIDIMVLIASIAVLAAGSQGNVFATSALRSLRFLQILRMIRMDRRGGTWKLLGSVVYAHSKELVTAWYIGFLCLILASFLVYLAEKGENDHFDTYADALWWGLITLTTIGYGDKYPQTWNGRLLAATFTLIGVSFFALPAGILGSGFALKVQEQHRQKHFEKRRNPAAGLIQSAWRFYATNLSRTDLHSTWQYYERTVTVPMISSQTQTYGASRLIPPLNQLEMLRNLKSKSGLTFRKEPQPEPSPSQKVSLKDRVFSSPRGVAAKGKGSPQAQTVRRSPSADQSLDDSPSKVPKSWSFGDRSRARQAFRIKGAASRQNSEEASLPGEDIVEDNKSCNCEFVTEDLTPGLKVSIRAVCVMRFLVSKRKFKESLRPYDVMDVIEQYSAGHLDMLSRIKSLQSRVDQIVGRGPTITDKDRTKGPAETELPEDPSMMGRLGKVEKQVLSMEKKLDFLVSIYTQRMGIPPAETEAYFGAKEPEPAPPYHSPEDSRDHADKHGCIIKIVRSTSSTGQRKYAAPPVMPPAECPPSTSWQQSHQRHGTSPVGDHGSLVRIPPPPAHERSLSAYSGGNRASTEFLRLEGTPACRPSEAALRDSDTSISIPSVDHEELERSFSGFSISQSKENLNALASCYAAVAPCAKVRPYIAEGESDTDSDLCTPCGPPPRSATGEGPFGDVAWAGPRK
KCNQ2 pot baseline: recorded beside KCNQ2 pot, whose call it bears; B-score; compound at 10 µM; measured here: initial fluorescence intensity artifact check;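 brightness before thallium and not channel activity; 0 = typical well and far values either way flag optical interference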
* hit, by the source's call; & = joins results of further samples. Not all compounds are listed; the hit share may differ from the screen's.

no. | SMILES | KCNQ2 pot | KCNQ2 pot baseline
1 | Cc1cc(C)c(OCCOCCN2CCCC2)c(C)c1 | 0.19 | 0.94
2 | CSCCC(NC(N)=O)C(=O)Nc1ccc(F)c(Cl)c1 (centres undefined) | 1.3 | -0.68
3 | CC(C)(C)NC(=O)CN(C(=O)C(=O)Nc1ccc2c(c1)OCCO2)C1CC1 | 0.99 | 0.36
4 | CCCn1nc(C(=O)OCC(=O)Nc2cccc(OC)c2)c2ccccc2c1=O | 0.78 | -1.4
5 | C/C=C(\C)CN1CCCC(N(C)CCc2ccc(OC)c(OC)c2)C1 (centres undefined) | 0.05 | 1.6
6 | O=C(CC1Nc2ccccc2NC1=O)Nc1ccccc1NC(=O)CC1Nc2ccccc2NC1=O (centres undefined) | 4.5 | 0.07
7 | CC(C)C(=O)NNC(=O)C1CC1(c1ccccc1)c1ccccc1 (centres undefined) | 0.06 | 1.6
8 | CC(C)c1c(O)nc(SCCN(C)C)[nH]c1=O | 0.13 | -0.63
9 | COc1ccc(CCNS(=O)(=O)c2cccc(S(=O)(=O)N3CCCC3)c2)cc1OC | 0.21 | 1.2
10 | CCN(CC)/C(=N\S(=O)(=O)c1ccccc1C)c1ccccc1 | 1.3 | -2
11 | CN1CCN(CC(O)COc2ccccc2)CC1 (centres undefined) | 2.3 | -2.3
12 | CCCCCN(C(=O)COC(=O)CSc1ccc([N+](=O)[O-])cc1)c1c(N)n(CCCC)c(=O)[nH]c1=O | 1.6 | -0.19
13 | NS(=O)(=O)c1ccc(NC(=O)c2ccccc2C(=O)N2CCCCC2)cc1 | 0.04 | 0.88
14 | CCCn1c(O)c(N=NC(=O)CNC(=O)/C=C/c2ccc(OC)cc2)c2ccccc21 | 0.99 | -0.38
15 | Cc1ccc(C(=O)Nc2nnc(-c3ccco3)o2)cc1 | 1.7 | 2
16 | Oc1ccc(-c2nc3ccc4ccccc4c3c3c2CCC3)cc1O | 0.32 | 0.34
17 | O=C(Nc1ccccc1F)C1CCCN(S(=O)(=O)c2ccc(-n3cnnn3)cc2)C1 (centres undefined) | 0.92 | -0.18
18 | CC(=O)c1ccc(Sc2nnc(C)s2)c([N+](=O)[O-])c1 | 0.16 | 0.53
19 | COc1ccccc1NC(=O)C/C(N)=N/O | 1.6 | 0.1
20 | N#Cc1ccsc1NC(=O)COC(=O)c1ccc2ccccc2c1 | 0.5 | 0.02

Shown field by field: entries from further up.
4. CCCn1nc(C(=O)OCC(=O)Nc2cccc(OC)c2)c2ccccc2c1=O
  KCNQ2 pot: 0.78 | KCNQ2 pot baseline: -1.4
5. C/C=C(\C)CN1CCCC(N(C)CCc2ccc(OC)c(OC)c2)C1 (centres undefined)
  KCNQ2 pot: 0.05 | KCNQ2 pot baseline: 1.6

Next part:
no. | SMILES | KCNQ2 pot | KCNQ2 pot baseline
21 | COC(=O)Nc1ccc(S(=O)(=O)N(CCO)CCO)cc1 | 1.4 | -0.06
22 | CN1CCN(C(=O)/C(=C/c2ccc(N(C)C)cc2)NC(=O)c2ccccc2)CC1 | 0.01 | -2.5
23 | COc1ccc(CN2C(=O)c3cccnc3C2=O)cc1S(=O)(=O)N(C)Cc1ccco1 | 0.12 | 0.19
24 | O=C(Cn1c(NCCCO)nc2ccccc21)c1ccc(Br)cc1 | 0.38 | 0.8
25 | O=C(O)Cn1ccc2ccccc21 | 1.6 | 0.69
26 | CC1(OC(=O)c2ccc(Cl)nc2)C(=O)C=C2C=C(c3ccsc3)OC=C2C1=O (centres undefined) | 1.1 | 0.01
27 | CC(C(=O)Nc1ccccc1)N1C(=O)c2ccccc2C1=O (centres undefined) | 0.46 | 2.4
28 | COc1ccc(C(=O)Cn2cnc3ccc(Cl)cc3c2=O)cc1F | 0.02 | -0.73
29 | CC(=O)SCC(=O)N=c1sc2cc(F)ccc2n1C | 5.9* | 0.67*
30 | CCN1CCN(C2=C(NS(=O)(=O)c3ccccc3)C(=O)c3ccccc3C2=O)CC1 | 0.57 | -0.01
31 | CCN(CC)c1ccc(NC(=O)C2CCCN(S(=O)(=O)c3cnc[nH]3)C2)c(C)c1 (centres undefined) | 2.1 | 0.25
32 | CC(C)(C)OC(=O)N1Cc2cc3ccccc3nc2C1CO (centres undefined) | 1.8 | -0.02
33 | CC(=O)Oc1ccc(C(=O)Nc2cc(C)ccc2NC(=O)COc2ccccc2)cc1 | 0.11 | 0.91
34 | Cc1cccc(C)c1NS(=O)(=O)c1ccc2c(c1)NC(=O)CO2 | 2 | 0.63
35 | CC(=O)N1CCC(C(=O)Nc2ccc(S(=O)(=O)N3CCC(C)CC3)cc2)CC1 | 0.58 | 0.31
36 | COc1ccc(-n2c(SCC(=O)Nc3ccc(Br)cc3)nc(O)cc2=O)cc1 | 0.93 | -0.76
37 | O=C(O)C1CCCN1S(=O)(=O)c1ccc(Cl)c(Cl)c1 (centres undefined) | 0.12 | 0.15
38 | COc1cccc2cc(C(=O)n3ccc(C)n3)c(=O)oc12 | 0.01 | -1.1
39 | C=CCn1c2ccccc2n2nc(C)c(=O)nc12 | 0.16 | -0.09
40 | COc1ccc(S(=O)(=O)NCCCN2CCCC2=O)cc1OC | 0.23 | 0.46

no. | SMILES | KCNQ2 pot | KCNQ2 pot baseline
41 | CC1CCCN(C(=O)C2COc3ccccc3O2)C1 (centres undefined) | 0.64 | -0.01
42 | COc1ccc(-c2cc(C(=O)NCc3cccnc3)no2)cc1 | 0.44 | 2.4
43 | CO/N=C(\C)c1ncc(C(F)(F)F)cc1N1CCOCC1 | 0.12 | -1.9
44 | CC(C)Cc1nc(Cl)c(C#N)c2c1CCC2 | 0.03 | 0.31
45 | Cc1ccc(OCc2nc(-c3ccc(-n4cccc4)cc3)no2)cc1C | 1.7 | 0.29
46 | Cc1ccc(O)c(NC2=C(Cl)C(=O)N(Cc3ccccc3)C2=O)c1 | 0.57 | 2.5
47 | COc1ccccc1CCNC(=O)C(=O)NCC1OCCN1C(=O)c1ccc(Cl)cc1 (centres undefined) | 1.3 | 0.26
48 | O=C(Nc1ccnn1C1CCN(Cc2ccccc2OCCO)CC1)c1cccc(F)c1 | 1.1 | -0.26
49 | COc1cc(NC(=O)CCS(=O)(=O)c2ccc3c(c2)n(C)c(=O)c(=O)n3C)cc(OC)c1 | 1.1 | 0.89
50 | O=C(c1ccnc(Cl)c1)N1CCCC(Nc2ccc(F)cc2)C1 (centres undefined) | 2.6 | -0.21
51 | Nc1nc(N)c2sc3nc(C(F)(F)F)cc(C(F)(F)F)c3c2n1 | 1.8 | 0.69
52 | N#Cc1cnn2c(-c3cccc(C(F)(F)F)c3)ccnc12 | 1 | 0.12
53 | CCCCc1cc(=O)oc2cc(C)cc(OCC(=O)Nc3ccccn3)c12 | 0.14 | 0.73
54 | COc1ccccc1NS(=O)(=O)c1ccc(NN=C2CCCCC2)c([N+](=O)[O-])c1 | 1.7 | 0.74
55 | COc1cc(CNCc2cccnc2)ccc1OCC(=O)NC(C)(C)C | 1.9 | -1.1
56 | COc1cccc(OCC(O)CN2CCN(c3ccccc3)CC2)c1 (centres undefined) | 0.01&0.24 | 0.26&0.05
57 | CN(C)S(=O)(=O)c1ccc(C(=O)Nc2ccc(S(=O)(=O)NC3=NCCCCC3)cc2)cc1 | 0.88 | 0.75
58 | CCOc1ccc(OCC)c(S(=O)(=O)NCc2ccc3c(c2)OCO3)c1 | 1.4 | 0.16
59 | O=C(O)c1cccc(-n2cccc2/C=N/O)c1 | 0.48 | 1.4
60 | COc1ccccc1CCCNC(=O)C1CCC(=O)N(CCCN2CCCC2=O)C1 (centres undefined) | 0.23 | 1.4

Grouped by structure, the entries above with a nitro group on carbon (three)
no. | SMILES | KCNQ2 pot | KCNQ2 pot baseline
12 | CCCCCN(C(=O)COC(=O)CSc1ccc([N+](=O)[O-])cc1)c1c(N)n(CCCC)c(=O)[nH]c1=O | 1.6 | -0.19
18 | CC(=O)c1ccc(Sc2nnc(C)s2)c([N+](=O)[O-])c1 | 0.16 | 0.53
54 | COc1ccccc1NS(=O)(=O)c1ccc(NN=C2CCCCC2)c([N+](=O)[O-])c1 | 1.7 | 0.74

The listing continues:
no. | SMILES | KCNQ2 pot | KCNQ2 pot baseline
61 | C(=NC12CN3CN(CN(C3)C1)C2)c1ccc2c(c1)OCO2 | 0.06 | 0
62 | O=C(NCCS(=O)(=O)N1CCN(c2ccccc2)CC1)c1ccccc1F | 1.8 | 1.1
63 | Cc1cccc(C)c1OCc1cc(C(=O)N(Cc2c(C)nn(C)c2C)C2CC2)no1 | 0.12 | -1.6
64 | CCN(CC)CCCNc1nc(CN2CCOCC2)nc2sc3c(c12)CCC3 | 0.03 | 1.5
65 | O=C(NCc1nnc(SCC(=O)N2CCCCCC2)o1)c1ccccc1F | 1.7 | -0.34
66 | CN(C(=O)CSc1nnc(-c2cccc(F)c2)n1N)C1CCS(=O)(=O)C1 (centres undefined) | 0.72 | -0.02
67 | c1ccc(CN2CCN(c3cnc4ccccc4n3)CC2)cc1 | 0.14 | 0.02
68 | COC(=O)Cc1[nH]n(-c2nc3ccccc3s2)c(=O)c1C(C)=O | 0.54 | -0.05
69 | O=C(O)C(Cc1c[nH]c2ccccc12)NS(=O)(=O)c1ccc(Br)cc1 (centres undefined) | 1.2 | -0.19
70 | COc1ccc(-c2c(C#N)c(N)nc3sc(C(=O)c4ccccc4)c(N)c23)cc1 | 0.51 | 0.9
71 | O=C(NCc1n[nH]c(=S)n1-c1ccc(F)cc1)c1ccc(S(=O)(=O)N2CCCC2)cc1 | 0.22 | -0.91
72 | O=C(Nc1ccccc1)Nc1ccc(F)cc1F | 3.6 | 1.8
73 | CC(=O)NNC(=O)C(O)(c1ccccc1)c1ccccc1 | 1.5 | 0.23
74 | c1ccc(-n2ncc3c2ncn2nnnc32)cc1 | 0.76 | 0.02
75 | CCCC(=O)c1ccc(N2CCN(C(=O)c3ccccc3Br)CC2)c(F)c1 | 0.29 | -0.79
76 | N#CC1=C(N)OC2=C(C(=O)CCC2)C1c1cccs1 (centres undefined) | 1.4 | 0.32
77 | Cc1cc(N2CCN(C)CC2)nc2ccc(NC(=S)NCCC(C)C)cc12 | 0.84 | 0.01
78 | O=C(CN1C(=O)C2C3CCC(C3)C2C1=O)OCC(=O)c1ccc(Br)cc1 (centres undefined) | 1.3 | 3.7
79 | CN(C)Cc1c(C(=O)N/N=C/c2cccc(OCc3ccc(F)cc3)c2)nnn1-c1nonc1N | 0.06 | 0
80 | O=C(O)C12CC3CC(C1)CC(n1ncc(NCc4ccccc4)c(Cl)c1=O)(C3)C2 | 1.3 | -1.9

Among those listed so far, these have a furan ring, fused or not.
no. | SMILES | KCNQ2 pot | KCNQ2 pot baseline
15 | Cc1ccc(C(=O)Nc2nnc(-c3ccco3)o2)cc1 | 1.7 | 2
23 | COc1ccc(CN2C(=O)c3cccnc3C2=O)cc1S(=O)(=O)N(C)Cc1ccco1 | 0.12 | 0.19

(more compounds)
no. | SMILES | KCNQ2 pot | KCNQ2 pot baseline
81 | O=C(N/N=C/c1cccc([N+](=O)[O-])c1O)C(O)(c1ccccc1)c1ccccc1 | 0.07 | 1.1
82 | Cc1ccccc1C(=O)NNC(=O)CSc1nnc(C)n1-c1ccccc1 | 1.1 | 0.01
83 | Cc1ccc(N2C(=O)SC(N(CC(=O)O)c3cccc(C)c3)C2=O)cc1 (centres undefined) | 0.4 | 0.1
84 | Cn1c(=O)c2[nH]c(N/N=C(/C#N)C(N)=O)nc2n(C)c1=O | 1.7 | -0.59
85 | CCCC(=O)Nc1cnc(NC(=O)c2cccc(F)c2)cc1C | 1.9 | -0.04
86 | COCCn1nnnc1C(c1ccccc1OC)N1CCc2ccccc2C1 (centres undefined) | 0.2 | -0.67
87 | Cc1c(Cl)cccc1NC(=S)N1CCN(Cc2ccc3c(c2)OCO3)CC1 | 0.46 | -0.01
88 | COC(=O)C1=C(C)NC(C)=C(C(=O)OC)C1c1ccc(NC(C)=O)cc1 | 1.2 | -2.6
89 | COc1ccc(S(=O)(=O)N(C)C)cc1NC(=O)CSc1nc(N)cc(N)n1 | 0.65 | 0.03
90 | CC(OC(=O)c1ccc2c(c1)OCCO2)C(=O)NC1CCCCC1C (centres undefined) | 0.99 | -1.1
91 | CC(=O)Nc1ccccc1NC(=O)COc1cccc2ccccc12 | 0.15 | -0.01
92 | COc1ccc(-c2c(C)oc3c(CN4CCOCC4)c(O)ccc3c2=O)cc1 | 0.07 | 0.04
93 | Cc1ccc(-c2cc(C(=O)NC3CCCC3)no2)cc1 | 0.09 | 0.56
94 | O=C(CCC(=O)N(CC(=O)NC1CCCC1)C1CCCC1)Nc1ccccn1 | 0.11 | 0.88
95 | CCOC(=O)c1c(C)[nH]c(C(=O)OCC(=O)Nc2sccc2C(N)=O)c1C | 0.68 | -0.43
96 | COc1ccc2[nH]c(=S)cc(C)c2c1 | 0.92 | -0.88
97 | COC(=O)C(Cc1ccccc1)N1CCS(=O)(=O)CC1 (centres undefined) | 2.4 | -0.5
98 | Cc1cc(N)ccc1S(C)(=O)=O | 1.4 | -0.44
99 | O=C(NC1CCS(=O)(=O)C1)c1cccc(S(=O)(=O)N2CCCC2)c1 (centres undefined) | 0.78 | 1.2
100 | COc1ccc(CCNC(=O)c2ccco2)cc1OC | 0.78 | 0.49

no. | SMILES | KCNQ2 pot | KCNQ2 pot baseline
101 | COc1cc(-c2nnc(SCC(=O)N(C)C3CCS(=O)(=O)C3)o2)cc(OC)c1OC (centres undefined) | 0.37 | -1.9
102 | CCOC(=O)C1(Cc2cccc(OC)c2)CCCN(Cc2c(C)nn(C(C)C)c2C)C1 (centres undefined) | 0.05 | -1.3
103 | CC(=O)Nc1sc2c(c1CN1CCN(c3ccc(F)cc3)CC1)CCCC2 | 3.1 | -0.38
104 | COc1cc(C2C(C#N)=C(C)NC3=C2C(=O)CC(C)(C)C3)ccc1OCCO (centres undefined) | 0.04 | 0.84
105 | Cc1ccc(NC(=O)CSC2=C(C#N)C(c3ccco3)CC(=O)N2)cc1 (centres undefined) | 0.33 | -2
